miR-21 FLuc = miR-21 reporter, rising signal. HeLa miR-21 FLuc reporter, luciferase, 48 h. Potency, µM (titrated, usually from 38.3 µM), inactives show at the top dose reporter change, positive = more light. 340,000 tested, under 10 active. AID 2288; active = well fitted rising curve with a large enough effect; inconclusive = small, poorly fitted or top-dose-only effect; inactive = no such curve, though single readings can be large or run the other way;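 further: % of control where 0% means no effect; miR-21 action dims this reporter so a rising signal means less miR-21 action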
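HeLa cells endogenously expressing miR-21, stably carrying CMV-driven firefly luciferase with a downstream miR-21 binding site, 2000 cells/well. Titrations up to approximately 40 uM, 48 hours; luciferase luminescence read.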
Rango dissoc inh = prevents RanGTP from dissociating the Rango-importin beta complex. O95149+P62826. Biochemical FRET Rango-importin beta, RanGTP-induced dissociation. Potency, µM (doses to about 46.1 µM), without a hit: at the top dose activity change, negative = inhibition. 340,000 tested, 0.071% active. AID 540253; active means falling FRET ratio curve, often poorly fitted, with flat reads before Ran was added; inconclusive means other falling curves, or compound fluorescence or quenching; inactive means flat or rising ratio curve;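 further: potency means the concentration at half of the fitted maximal effect; % of control where 0% means no effect; nearly all actives have a fitted effect of over 45% in size; -100% = wells without RanGTP and RCC1; the record marks most hits as doubtful in a second field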
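Rango (0.1 uM)–importin beta (0.25 uM) complex; RanGTP-RCC1 trigger; 45 min RT; CFP/YFP FRET read.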
Rango complex inh = inhibitors of Rango-importin beta complex formation. Rango CFP/YFP FRET sensor + importin beta, 45 min. AID 540263. 340,000 tested, 0.031% active. Potency, µM (doses to about 92.2 µM), without a hit: at the top dose inhibition of complex formation; active = rising FRET ratio curve, often small or poorly fitted; inconclusive = mostly compound fluorescence or quenching in the first reads; inactive = flat curves in all reads;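 further: potency means the concentration at half of the fitted maximal effect; 0% = DMSO wells and 100% = buffer wells lacking importin beta; nearly all actives have a fitted effect of over 15% in size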
Target sequence (Q14974 whole entry, looked up): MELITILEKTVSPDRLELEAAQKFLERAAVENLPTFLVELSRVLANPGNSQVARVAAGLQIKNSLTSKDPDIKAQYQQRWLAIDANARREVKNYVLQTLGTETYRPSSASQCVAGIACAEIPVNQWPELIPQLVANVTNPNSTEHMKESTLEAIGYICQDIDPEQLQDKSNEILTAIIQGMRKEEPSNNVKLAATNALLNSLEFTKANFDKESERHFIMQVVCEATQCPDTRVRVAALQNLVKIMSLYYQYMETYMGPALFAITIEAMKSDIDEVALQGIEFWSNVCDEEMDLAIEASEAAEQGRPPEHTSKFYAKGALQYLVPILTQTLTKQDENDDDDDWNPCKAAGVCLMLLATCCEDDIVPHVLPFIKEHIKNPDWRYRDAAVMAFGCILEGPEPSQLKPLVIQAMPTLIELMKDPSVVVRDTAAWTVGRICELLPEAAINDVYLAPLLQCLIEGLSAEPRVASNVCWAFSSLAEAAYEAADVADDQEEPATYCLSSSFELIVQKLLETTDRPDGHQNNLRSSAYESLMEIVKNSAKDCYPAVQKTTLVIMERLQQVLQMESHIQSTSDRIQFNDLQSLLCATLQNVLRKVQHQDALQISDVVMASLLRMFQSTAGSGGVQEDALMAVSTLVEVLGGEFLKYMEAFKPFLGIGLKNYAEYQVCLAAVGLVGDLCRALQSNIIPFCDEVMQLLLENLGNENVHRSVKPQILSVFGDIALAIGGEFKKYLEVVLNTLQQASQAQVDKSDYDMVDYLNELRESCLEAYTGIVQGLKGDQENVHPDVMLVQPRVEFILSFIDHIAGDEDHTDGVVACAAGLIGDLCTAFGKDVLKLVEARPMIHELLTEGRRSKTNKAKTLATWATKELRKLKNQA
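FRET biosensor (snurportin 1 IBB flanked by EYFP and cerulean), 50 nM, with compound 5 min, then 0.125 microM importin beta in PBS, 1 mM DTT, 0.02% Tween-20, 0.1% BSA. CFP/YFP ratio read after 45 min at room temperature; pre-read flags interference.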
GLA inh pH 4.5 = inhibitors of human alpha-galactosidase A at pH 4.5; purified enzyme, 4-MU-alpha-Gal fluorescence, pH 4.5; activity change, negative = inhibition, % at 105 µM; 230,000 tested, under 10 active; inconclusive = small, poorly fitted or top-dose-only inhibition, or a rising curve; inactive = flat fitted curve, though single readings scatter; no compound was filed as active;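 further: 0% = full activity with enzyme and -100% = basal without enzyme; dose as in the result columns while the protocol names 77 µM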
* marks the source's active call; other numbers are inactive results; ? = inconclusive; nt = no result given.

compound | miR-21 FLuc | Rango dissoc inh | Rango complex inh | GLA inh pH 4.5
O=C(c1ccccc1)c1ccc2c(c1)OCCOCCOCCO2 | -18% | 28% | 3.2% | 1
C/C(=N/NC(=O)c1sc(NS(=O)(=O)c2ccc(C)cc2)nc1C)c1sc(N)nc1C | -11% | 3% | ? | 0
Cc1cc(C)c2c(=O)n(-c3ccccc3)[nH]c2n1 | -34% | 1% | -3.6% | 8
CC1CCc2cc(F)ccc2N1C(=O)CN1C(=O)c2ccccc2C1=O (stereo unspecified) | -5% | -2% | 7.5% | -8
NC(=O)NS(=O)(=O)Oc1ccccc1 | 1% | 23% | 5.7% | nt
O=C(CSc1ccc(Cl)cc1)NC1CCCC1 | -41% | 1% | -4.1% | -6
O=C(Nc1cc(C(F)(F)F)ccc1N1CCOCC1)c1cccs1 | -9% | 11% | 0.0% | -14
Oc1ccc(N2CCN(CC(O)c3ccccc3)CC2)cc1 (stereo unspecified) | -5% | 5% | 1.5% | nt
CCOC(=O)C1CCN(S(=O)(=O)c2ccc3c(c2)NC(=O)CS3)CC1 | 3% | -10% | -0.3% | nt
O=C(CSC(=S)N1CCCC1)NCC(=O)Nc1ccccc1Br | nt | -1% | -4.7% | nt
Cn1nc(C(=O)Nc2ccc(S(=O)(=O)NCc3ccco3)cc2)c2ccccc2c1=O | 8% | 8% | -2.3% | -7
CCCC(c1nnnn1C1CCCCC1)N1CCN(c2ncccn2)CC1 (stereo unspecified) | -7% | 3% | 0.2% | 5
COC(=O)/C(=C\Nc1ccc(Cl)cc1Cl)NC(=O)c1ccccc1 | -26% | -4% | 0.8% | 11
Cc1ccc(C23CC4CC(CC(NC(=O)NC(C)(C)CO)(C4)C2)C3)cc1 | 6% | -12% | -0.8% | 0
COC(=O)C1(C)NC(c2ccccc2C)C2C(=O)N(c3ccccc3)C(=O)C21 (stereo unspecified) | 0% | -15% | -0.1% | nt
CCOC(=O)c1cc2ccc(OC)cc2oc1=O | -23% | ? | ? | ?
COc1cc(/C=C2\SC(=S)N(CCC(=O)NC3CCCC3)C2=O)cc(OC)c1OC | -1% | -16% | 3.4% | nt
COc1ccc(C2CC(=O)c3sc(NC(C)=O)nc3C2)cc1 (stereo unspecified) | -45% | 6% | 0.5% | 3
COc1cccc2cc3c(=O)oc4ccccc4c3nc12 | -9% | -24% | -0.8% | 2
Cc1ccc2c(c1)N(CC(=O)N1CCN(c3nc4ccccc4s3)CC1)C(=O)C(C)O2 (stereo unspecified) | -1% | -13% | -2.5% | 1
CC(C)NC(=O)NC(=O)CN1c2cccc3cccc(c23)S1(=O)=O | -1% | 4% | 0.9% | nt
CC(C)C(NC(=O)c1ccc(C(C)(C)C)cc1)C(=O)Nc1ccc(N2CCOCC2)cc1 (stereo unspecified) | nt | 17% | -1.8% | nt
Cn1cc(CN2CCCC(CNC(=O)c3ccc4c(c3)OCO4)C2)c2ccccc21 (stereo unspecified) | -3% | 15% | 0.2% | 7
Cc1cccc(OC(C)C(=O)Nc2ccc(S(=O)(=O)N3CCCC3)cc2)c1 (stereo unspecified) | 5% | -17% | -1.0% | nt
COc1cccc(NC(=O)CN(C)C(=O)c2c(-c3ccccc3)noc2C)c1 | 2% | -5% | -0.4% | nt
O=C(Nc1ccc(F)c(Cl)c1)c1cc(-c2ccco2)on1 | -7% | -23% | 0.6% | nt
CCn1c(SCC(=O)O)nnc1-c1ccc2[nH]c(C)c(C)c2c1 | -17% | -5% | 2.8% | 10
COc1cccc(NC(=O)N2CCN(S(C)(=O)=O)CC2)c1 | -1% | -1% | -1.0% | -13
CCCOC(=O)Nc1ccc(C(N)=O)cc1 | -26% | -9% | -0.6% | -9
CC(C)NC(=O)c1ccc2c(=O)n(C3CCCC3)c(=S)[nH]c2c1 | 0% | -8% | 2.2% | 5
CC(=O)c1cc2c(cc1NC(=O)CN1CCCCCC1)OCO2 | -9% | -4% | -2.3% | 0
CCc1nc2cc(Cl)c(Cl)cc2[nH]1 | -4% | 3% | 3.6% | 9
CC(=O)c1ccc(NC(=O)CSc2ccsc2[N+](=O)[O-])cc1 | -15% | -2% | -1.9% | -11
CCc1ccc(CNCc2ccc(F)cc2)cc1 | -14% | 2% | 2.2% | -5
COc1cc2nc(C3CCC3)n(NC(=O)c3ccco3)c(=O)c2cc1OC | -18% | -2% | -1.8% | 6
CCOc1ccc(NC(=O)CN2CCN(CC(=O)Nc3ccc4c(c3)OCO4)CC2)cc1 | 1% | 2% | 0.0% | 2
CCCCCCCc1n[nH]c(=S)n1Cc1ccccc1 | 0% | 1% | -2.3% | -3
CC(=O)c1ccc(NC(=O)c2cc3ccccc3o2)cc1 | -46% | -2% | 4.9% | nt
O=C(NNC(=O)c1ccncc1)Nc1cccc([N+](=O)[O-])c1 | 0% | -2% | 0.9% | 4
O=c1c2ccccc2nc2n1CCS2(=O)=O | 0% | -8% | -0.1% | -2
COc1ccc(C(=O)/C=C2\NCCc3cc(OC)c(OC)cc32)cc1OC | -28% | -2% | 8.2% | nt
Cc1ccc(NC(=O)Cn2nnc(-c3ccc4c(c3)OCO4)n2)cc1F | 9% | 20% | -1.8% | nt
O=C1c2[nH]nc(-c3ccccc3O)c2C(c2ccccc2)N1Cc1ccco1 (stereo unspecified) | 1% | 0% | -0.2% | -2
O=C(C1CCCN(S(=O)(=O)c2ccccc2)C1)N1CCCc2ccccc21 (stereo unspecified) | 18% | 1% | 3.3% | -8
Cc1ccc2c(c1)cc(C(=O)N[C@@H](Cc1ccccc1)C(=O)O)n2C | 0% | -5% | 0.9% | nt
CCOc1ccccc1N1CC(C(=O)N2CCc3ccccc3C2)CC1=O (stereo unspecified) | -9% | 12% | 2.1% | 3
CC(=O)c1ccc(O)c(CC=C(C)C)c1 | 1% | -7% | -3.5% | 6
COc1cccc(NC(=O)C(=O)NCCCN2CCCC2=O)c1 | nt | -8% | 0.7% | nt
O=C(CC(=O)c1ccccc1)CS(=O)(=O)c1ccccc1 | nt | -13% | ? | nt
CCC(Cc1ccccc1)NC(=O)c1ccc2nc(N3CCOCC3)sc2c1 (stereo unspecified) | 12% | 0% | -1.3% | nt

Pulled by compound from the list above:
compound | miR-21 FLuc | Rango dissoc inh | Rango complex inh | GLA inh pH 4.5
Cc1ccc(NC(=O)Cn2nnc(-c3ccc4c(c3)OCO4)n2)cc1F | 9% | 20% | -1.8% | nt
COc1cccc(NC(=O)C(=O)NCCCN2CCCC2=O)c1 | nt | -8% | 0.7% | nt
O=C(C1CCCN(S(=O)(=O)c2ccccc2)C1)N1CCCc2ccccc21 (stereo unspecified) | 18% | 1% | 3.3% | -8

The list goes on:
compound | miR-21 FLuc | Rango dissoc inh | Rango complex inh | GLA inh pH 4.5
COc1ccc(OC)c(C2=C/C(=C/c3ccccn3)C(=O)O2)c1 | 0% | ? | ? | 10
O=C(CN(c1ccccn1)S(=O)(=O)c1ccc(F)cc1)Nc1ccc(F)cc1F | 3% | -17% | 3.9% | ?
O=C(c1ccc(Cl)cc1)[C@@H]1[C@@H]2C(=O)N(c3cccc4ccccc34)C(=O)[C@@H]2C2c3ccccc3C=NN21 (stereo partly specified) | 0% | 3% | 2.7% | -21
O=C(CSc1nnnn1-c1cccc(F)c1)NC1CC1 | nt | 10% | 1.4% | nt
COc1cccc(CNC(=O)CCS(=O)(=O)c2ccc3c(c2)NC(=O)CS3)c1 | 0% | 12% | -4.0% | nt
Cc1nn(CC(=O)NC(C)C)c(C)c1[N+](=O)[O-] | -1% | 0% | -0.1% | 1
O=C(CCl)N1c2ccccc2Sc2c1ccc1ccccc21 | nt | ? | ? | nt
C=CCN1C(=O)C2(OCCCO2)c2cc(CCCC)ccc21 | 4% | 0% | 0.5% | nt
Cc1nc2cc(C(=O)OCC(=O)Nc3cccc(Cl)c3)ccc2n1-c1ccccc1 | -4% | -3% | 0.8% | -7
Cc1ccc(C(=O)NN2C(=O)C3C4C=CC([C@@H]3C2=O)C42CC2)cc1 (stereo partly specified) | -3% | ? | ? | 10
O=C(COc1cccnc1[N+](=O)[O-])Nc1c(Cl)cccc1Cl | nt | -6% | 1.5% | nt
O=C(O)c1c(Cl)cccc1Nc1ccccc1 | nt | 11% | 5.3% | nt
Cc1nn(C)c(C(=O)N2CCN(C(=O)c3ccco3)CC2)c1[N+](=O)[O-] | -2% | 7% | -1.6% | 0
COc1ccc2c(c1)c(=O)cc(-c1ccccc1)n2C | -44% | 3% | -4.0% | -9
COc1ccc(CC(=O)Nc2ccc(C(=O)NCC(C)C)cc2)cc1 | -1% | 1% | 2.4% | 10
COc1ccc(-c2cc3nc4c(c(N5CCC6(CC5)OCCO6)n3n2)CCC4)cc1 | -19% | -9% | 6.8% | -9
CC(C)(C)c1nnc2sc(SCC(=O)N3CCCc4ccccc43)nn2c1=O | 9% | 1% | 3.6% | -8
Cc1ccc(C(=O)/C=C/Nc2ccc([N+](=O)[O-])cc2Br)cc1 | -58% | -10% | ? | 7
Cc1noc(C)c1S(=O)(=O)N(CC(=O)O)c1ccc2c(c1)OCO2 | -4% | 11% | 0.5% | 2
CN(C)S(=O)(=O)c1cccc(C(=O)Nc2cccnc2)c1 | 0% | 1% | 0.0% | 1
Cc1ccc(C)c(S(=O)(=O)Nc2cc(C)on2)c1 | -1% | 8% | 4.5% | nt
CSc1nc2[nH]c3c(c2c2nnnn12)CCCC3 | -12% | 2% | -0.2% | 10
O=C1CN(S(=O)(=O)c2ccc(Cl)cc2C(F)(F)F)CCN1 | -10% | 5% | -0.8% | 4
COC(=O)[C@@H]1CC[C@H](C)[C@@H](c2ccc(C)cc2)N1C(=O)c1ccc(/C=N/O[C@@H](C)CN2CCCCc3nc(C)c(C)cc32)cc1 | 5% | nt | nt | -28
Cc1ccc(CN2Cc3cccc4c3[C@@H](CC2=O)[C@H](O)[C@H](O)C4)cc1 | nt | 2% | -1.9% | nt
Cc1cc(NC(=O)CSCC(=O)Nc2ccc(C)c(C)c2)no1 | nt | 6% | 2.8% | nt
COc1ccc(CCNC(=O)c2ccc(COc3ccccc3OC)o2)cc1 | -7% | ? | 2.0% | nt
O=C1CSCN1c1ccc(Cl)cc1 | 6% | ? | -1.4% | 4
Cc1cc(C(=O)CSc2n[nH]c(N)n2)c(C)n1C1CC1 | -16% | 2% | 0.2% | -6
O=C(c1ccc(-c2ccccc2)cc1)N1CCN(c2ccccc2)CC1 | -31% | 3% | 3.9% | nt
CC(COc1ccccc1)N1CCC(CO)(Cc2ccccc2)CC1 (stereo unspecified) | 3% | -1% | -2.4% | -4
CC(C)c1nc(SCC(=O)c2c[nH]c3ccccc23)n[nH]1 | -8% | 20% | -2.5% | -6
CC(c1ccccc1)n1c(-c2ccc(Cl)cc2)n[nH]c1=S (stereo unspecified) | -9% | -9% | -0.6% | nt
COc1ccc2nc(N/C(N)=N/C(=S)Nc3ccc(C)c(C)c3)nc(C)c2c1 | -16% | nt | nt | 5
CN(C)S(=O)(=O)N1CCc2ccccc2C1 | -2% | -6% | -0.5% | -3
CC(=O)C1=NN(c2ccccc2)C(c2ccc3c(c2)OCO3)N1c1ccccc1 (stereo unspecified) | 1% | ? | ? | -18
O=C(CCSCCC(=O)NCCN1CCOCC1)NCCN1CCOCC1 | -5% | 12% | 1.2% | -2
O=C(CC1C(=O)NCCN1Cc1ccoc1)NCCCn1ncc2ccccc21 (stereo unspecified) | -1% | 4% | 2.3% | 1
CCc1ccc(S(=O)(=O)c2nnn3c2nc(N2CCOCC2)c2ccccc23)cc1 | 1% | 7% | 0.7% | nt
CCOC(=O)CNC(=O)CSc1ncnc2c1nnn2-c1ccc(F)cc1 | -6% | 24% | -1.0% | -8
COc1ccc(/C=N/n2cncn2)cc1CSc1ccccn1 | -23% | 2% | 1.6% | -12
CCOC(=O)c1c(NC(=S)N2CCCCC2)sc2c1CCN(C(=O)OCC)C2 | -4% | 10% | -2.6% | -17

Not all compounds are listed, so the mix of outcomes need not match the whole.
